Bioassay records: PubChem BioAssay, Broad Institute
MLL AF4-AF9 inh: inhibitors of AF4 peptide binding to AF9, primary screen, biochemical, AlphaScreen, biotin-AF4 peptide, FLAG-AF9, single point; Protein AF-9 (Homo sapiens), P42568; inhibition, % at 10 µM; 350,000 compounds, 0.47% hits;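 active means every replicate reaching a set inhibition limit, whatever the replicate mean, cut at about 25% in these data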;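 further: 0% = plate neutral control median and 100% = total signal loss; the record names both 10 and 1 µM as test concentration; the first replicate is given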
Target sequence (P42568 whole entry, looked up): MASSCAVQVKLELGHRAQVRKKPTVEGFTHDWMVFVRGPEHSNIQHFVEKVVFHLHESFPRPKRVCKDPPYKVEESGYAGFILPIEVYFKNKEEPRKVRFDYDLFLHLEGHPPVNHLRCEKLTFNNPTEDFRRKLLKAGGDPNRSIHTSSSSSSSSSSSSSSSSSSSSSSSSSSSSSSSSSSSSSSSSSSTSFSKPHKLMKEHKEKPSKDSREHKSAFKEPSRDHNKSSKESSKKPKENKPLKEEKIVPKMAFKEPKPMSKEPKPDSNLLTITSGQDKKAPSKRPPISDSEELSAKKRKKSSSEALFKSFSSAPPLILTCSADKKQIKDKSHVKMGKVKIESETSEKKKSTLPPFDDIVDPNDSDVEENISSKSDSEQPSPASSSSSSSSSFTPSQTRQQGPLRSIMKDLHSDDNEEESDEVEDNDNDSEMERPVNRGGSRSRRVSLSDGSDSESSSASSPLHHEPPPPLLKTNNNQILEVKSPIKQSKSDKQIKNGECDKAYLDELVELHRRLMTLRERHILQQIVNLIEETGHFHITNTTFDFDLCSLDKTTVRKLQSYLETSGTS
FGF22 binding: binders of human FGF22 protein, primary screen, FGF22 synaptogenesis inhibitor project, biophysical, thermal shift, single point | recombinant FGF22 thermal shift, SYPRO orange fluorescence; percent of sucrose octasulfate shift, DMSO zero | calls only at 9.99 µM | Fibroblast growth factor 22 (Homo sapiens), Q9HCT0 | 340,000 compounds, 1.5% hits;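 active means melting point raised past a set limit in the mean and every replicate; three in four hits are not shown here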
Target sequence (Q9HCT0 whole entry, looked up): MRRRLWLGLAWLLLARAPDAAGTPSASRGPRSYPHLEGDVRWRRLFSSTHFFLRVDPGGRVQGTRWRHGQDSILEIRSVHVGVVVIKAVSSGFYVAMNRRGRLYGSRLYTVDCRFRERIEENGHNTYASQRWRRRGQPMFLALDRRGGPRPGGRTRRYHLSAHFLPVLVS
An asterisk follows results filed as active; i = inactive; / = not tested or not shown. A portion of the library, so the mix of outcomes need not match the whole.

SMILES	MLL AF4-AF9 inh	FGF22 binding
CCNC(=O)C[C@H]1C=C[C@H](NS(=O)(=O)c2ccc(C)cc2)[C@H](CO)O1	-2.6	i
CC(=O)N1[C@H](C(=O)NCc2ccc(F)cc2)[C@@H](CO)[C@@H]2Cn3c(cccc3=O)[C@@H]21	-0.7	i
CO[C@H]1CN(C)C(=O)c2ccc(NS(=O)(=O)c3ccccc3)cc2OC[C@@H](C)N(Cc2ccccn2)C[C@H]1C	2.3	i
COc1ccccc1NC(=O)N[C@H]1CC[C@@H](CCn2cc(-c3ccccc3OC)nn2)O[C@@H]1CO	-3.1	i
Cc1noc(C)c1S(=O)(=O)Nc1ccc2c(c1)C(=O)N([C@@H](C)CO)C[C@H](C)[C@H](CN(C)C(=O)Nc1ccc(F)cc1)OCCCC[C@H](C)O2	-0.1	i
C[C@@H]1CN([C@@H](C)CO)C(=O)Cc2cc(NC(=O)Cc3cn(C)c4ccccc34)ccc2O[C@H]1CN(C)Cc1ccncc1	8.4	i
C[C@H](CO)N1C[C@H](C)[C@@H](CN(C)C)Oc2ccc(NC(=O)C3CCCCC3)cc2C1=O	-0.8	i
COCCNC(=O)c1cc2c(c(-c3cccc(-c4cccc(F)c4)c3)n1)[C@H](CCO)N([S@@](=O)C(C)(C)C)C2	0.5	i
C[C@@H]1CCCCO[C@@H](CN(C)Cc2ccc(C(=O)O)cc2)[C@H](C)CN([C@H](C)CO)C(=O)c2cc(NC(=O)CCC(F)(F)F)ccc2O1	-1.5	i
Cn1cnc(S(=O)(=O)N[C@H]2CC[C@@H](CC(=O)NCC3CC3)O[C@H]2CO)c1	0.7	i
C[C@H](CO)N1C[C@H](C)[C@@H](CN(C)C(=O)Nc2cccc3ccccc23)Oc2ccc(NC(=O)C3CCCCC3)cc2CC1=O	0.1	i
O=C(N[C@@H]1CC[C@H](CC(=O)N2CCc3ccccc3C2)O[C@@H]1CO)C1CC1	-2.6	i
CNC[C@@H]1Oc2ccc(NC(=O)C3CC3)cc2C(=O)N([C@@H](C)CO)C[C@H]1C	-1.9	i
COc1cccc(-c2cn(CC[C@H]3CC[C@H](NC(=O)CC4CC4)[C@H](CO)O3)nn2)c1	-1.6	i
C[C@@H]1CCCCO[C@@H](CN(C)S(=O)(=O)c2cn(C)cn2)[C@H](C)CN([C@H](C)CO)C(=O)c2cc(NC(=O)C3CCCCC3)ccc2O1	0.7	i
O=C(Nc1cc(Cl)cc(Cl)c1)N[C@H]1CC[C@@H](CCNS(=O)(=O)c2cccc(F)c2)O[C@@H]1CO	-0.6	i
O=C(C[C@@H]1CC[C@H](NC(=O)C2CC2)[C@@H](CO)O1)NCc1ccccc1Cl	0.9	i
O=C(C[C@@H]1CC[C@@H]2[C@H](COC[C@H](O)CN2Cc2ccccc2)O1)NCCCN1CCOCC1	-4.9	i
C[C@@H]1CN([C@H](C)CO)C(=O)c2cccc(NS(=O)(=O)c3ccc(F)cc3)c2O[C@@H]1CN(C)C(=O)Nc1ccccc1	-1.4	i
N#C[C@@H]1[C@H](c2ccccc2-c2ccccc2F)[C@H](CO)N1C(=O)Cc1ccccc1	-0.7	i
CCCN(C)C[C@H]1Oc2ncc(C#CC3(O)CCCC3)cc2C(=O)N([C@H](C)CO)C[C@H]1C	0.3	i
COC(=O)[C@]12C[C@H](CC(=O)N3CCSCC3)C(=O)N(Cc3ccccc3)C1=C[C@H](C1CCCC1)O[C@@H]2C	4.8	i
CC(C)NC(=O)N(C)C[C@@H]1OCCCC[C@H](C)Oc2ccc(NC(=O)NC3CCCCC3)cc2C(=O)N([C@H](C)CO)C[C@@H]1C	-11.8	i
CN1C(=O)c2cc(NC(=O)c3cscn3)ccc2OC[C@H]2O[C@@H](CC(=O)N3CCCCC3)CC[C@@H]21	-2.0	i
C[C@H](CO)N1C[C@H](C)[C@H](CN(C)C(=O)c2ccccc2F)Oc2ncc(C#Cc3ccc(F)cc3)cc2C1=O	2.1	i

The last six records of the section before come first, to join the parts.
SMILES	MLL AF4-AF9 inh	FGF22 binding
N#C[C@@H]1[C@H](c2ccccc2-c2ccccc2F)[C@H](CO)N1C(=O)Cc1ccccc1	-0.7	i
CCCN(C)C[C@H]1Oc2ncc(C#CC3(O)CCCC3)cc2C(=O)N([C@H](C)CO)C[C@H]1C	0.3	i
COC(=O)[C@]12C[C@H](CC(=O)N3CCSCC3)C(=O)N(Cc3ccccc3)C1=C[C@H](C1CCCC1)O[C@@H]2C	4.8	i
CC(C)NC(=O)N(C)C[C@@H]1OCCCC[C@H](C)Oc2ccc(NC(=O)NC3CCCCC3)cc2C(=O)N([C@H](C)CO)C[C@@H]1C	-11.8	i
CN1C(=O)c2cc(NC(=O)c3cscn3)ccc2OC[C@H]2O[C@@H](CC(=O)N3CCCCC3)CC[C@@H]21	-2.0	i
C[C@H](CO)N1C[C@H](C)[C@H](CN(C)C(=O)c2ccccc2F)Oc2ncc(C#Cc3ccc(F)cc3)cc2C1=O	2.1	i
O=C(C[C@@H]1C[C@H]2c3cc(NC(=O)C4CCOCC4)ccc3O[C@H]2[C@@H](CO)O1)NCc1cccnc1	2.6	i
C[C@@H]1CCCCO[C@@H](CN(C)Cc2ccncc2)[C@H](C)CN([C@@H](C)CO)C(=O)c2cc(NS(=O)(=O)c3ccc(F)cc3)ccc2O1	-3.0	i
C[C@H]1CCCCO[C@H](CN(C)C(=O)Nc2ccc3c(c2)OCO3)[C@@H](C)CN([C@@H](C)CO)C(=O)c2cc(NC(=O)c3ccncc3)ccc2O1	0.6	i
CCC(=O)N(C)C[C@H]1Oc2ncc(C#Cc3ccncc3)cc2C(=O)N([C@H](C)CO)C[C@@H]1C	-9.8	i
C[C@H](CO)N1C[C@H](C)[C@@H](CN(C)S(=O)(=O)c2ccc(F)cc2)OCCCC[C@H](C)Oc2ccc(NS(=O)(=O)c3ccccc3)cc2C1=O	2.0	i
Cc1noc(C)c1NC(=O)Nc1ccc2c(c1)CC(=O)N([C@@H](C)CO)C[C@@H](C)[C@H](CN(C)C(=O)Nc1c(C)noc1C)O2	-2.0	i
CCC(=O)N1C[C@@H](O)COC[C@H]2O[C@H](CC(=O)NCC3CCCCC3)CC[C@@H]21	-0.6	i
C[C@@H]1CN([C@@H](C)CO)C(=O)c2cc(Br)cnc2O[C@@H]1CN(C)CC1CCOCC1	-1.7	i
C[C@@H]1CN([C@H](C)CO)C(=O)c2cc(C3=CCCC3)cnc2O[C@@H]1CN(C)Cc1ccccn1	-2.4	i
C[C@@H]1CCCCO[C@@H](CN(C)S(=O)(=O)c2cn(C)cn2)[C@@H](C)CN([C@H](C)CO)C(=O)c2cc(NS(=O)(=O)c3ccccc3)ccc2O1	-0.2	i
C[C@@H]1CN([C@H](C)CO)C(=O)Cc2cc(NC(=O)Cc3cn(C)c4ccccc34)ccc2O[C@@H]1CN(C)S(=O)(=O)c1cccs1	0.3	i
C[C@@H](NC(=O)C[C@H]1CC[C@H](NC(=O)C2CC2)[C@H](CO)O1)c1ccccc1	-0.6	i
C[C@@H]1CN([C@H](C)CO)C(=O)c2cc(NC(=O)Nc3ccc4c(c3)OCO4)ccc2O[C@H]1CN(C)Cc1ccc(C(F)(F)F)cc1	4.4	i
O=C(CN1CCOCC1)N[C@H]1CC[C@@H](CCNC(=O)C2CCCC2)O[C@H]1CO	2.2	i
CC(C)NC(=O)N(C)C[C@H]1OCCCC[C@H](C)Oc2ccc(NC(=O)CCCN(C)C)cc2C(=O)N([C@H](C)CO)C[C@@H]1C	-4.6	i
CCC(=O)N1CCC2(CC1)CN(C(=O)NC1CCCC1)[C@H](CO)c1c2c2ccc(OC)cc2n1C	1.5	i
C[C@H](CO)N1C[C@H](C)[C@H](CN(C)Cc2ccncc2)Oc2ccc(NC(=O)Cc3ccccc3)cc2CC1=O	-2.6	i
COC(=O)Cc1nnn2c1[C@H](C)[C@H](c1ccccc1Br)OCC2	-1.1	/
CC(=O)N(C)C[C@H]1Oc2ncc(C#CC3(O)CCCC3)cc2C(=O)N([C@@H](C)CO)C[C@H]1C	-2.9	i
Cc1noc(C)c1NC(=O)N(C)C[C@H]1Oc2ccc(NC(=O)Nc3ccc(C(F)(F)F)cc3)cc2C(=O)N([C@H](C)CO)C[C@H]1C	1.9	i
C[C@@H]1CN([C@H](C)CO)C(=O)c2cccc(NC(=O)C3CC3)c2O[C@@H]1CN(C)C(=O)Nc1cccc2ccccc12	2.4	i
O=C(Nc1ccc(F)cc1)N[C@H]1C=C[C@H](CC(=O)N2CCOCC2)O[C@@H]1CO	1.6	i
C[C@@H]1CCCCO[C@@H](CN(C)Cc2ccncc2)[C@@H](C)CN([C@H](C)CO)C(=O)c2cc(NC(=O)Nc3ccc(C(F)(F)F)cc3)ccc2O1	-3.9	i
C[C@@H]1CN([C@@H](C)CO)C(=O)c2cc(NC(=O)CCN3CCOCC3)ccc2O[C@@H]1CN(C)S(=O)(=O)c1ccc(Cl)cc1	0.1	i
CCCC#Cc1ccc2c(c1)O[C@@H](CN(C)C(=O)c1cnccn1)[C@@H](C)CN([C@H](C)CO)S2(=O)=O	0.7	i
SMILES	MLL AF4-AF9 inh	FGF22 binding
O=S(=O)(c1cccc(Cl)c1)N1[C@@H]2CNC[C@H]1C2c1ccc(-c2cccnc2)cc1 (some centres not stated)	-1.3	i
CCCC(=O)Nc1ccc2c(c1)C(=O)N(C)C[C@@H](OC)[C@@H](C)CN(Cc1ccc(-c3ccccn3)cc1)[C@H](C)CO2	1.4	i
CO[C@@H]1CN(C)C(=O)c2cc(NC(=O)NC3CCCCC3)ccc2OC[C@H](C)N(CC2CCOCC2)C[C@H]1C	-20.9	i
C[C@@H]1CN([C@@H](C)CO)S(=O)(=O)c2ccc(C#CC3(O)CCCC3)cc2O[C@H]1CN(C)C	-1.8	i
O=C(Nc1cc(F)ccc1F)N1CCCCN2[C@H](C1)[C@H](c1ccc(-c3cncnc3)cc1)[C@@H]2CO	-2.9	i
C[C@@H]1CN([C@@H](C)CO)C(=O)c2cc(NS(=O)(=O)c3ccc(F)cc3)ccc2O[C@@H]1CN(C)Cc1ccccc1	2.5	i
Cc1cccc(S(=O)(=O)N[C@@H]2CC[C@H](CCNC(=O)c3cnccn3)O[C@H]2CO)c1	-0.8	i
CNC[C@@H]1Oc2ccc(N(C)C)cc2CC(=O)N([C@@H](C)CO)C[C@H]1C	-3.8	i
CO[C@H]1CN(C)C(=O)c2ccc(NC(=O)C3CC3)cc2OC[C@H](C)N(CCc2ccccc2)C[C@H]1C	0.9	i
Cc1noc(C)c1S(=O)(=O)Nc1ccc2c(c1)C(=O)N([C@@H](C)CO)C[C@H](C)[C@@H](CN(C)Cc1ccc(C(=O)Nc3ccccc3N)cc1)O2	-1.8	i
O=C(C1CCOCC1)N1C[C@H]2[C@@H](c3ccccc31)[C@H](CO)N2Cc1ccccc1Cl	0.5	i
C[C@@H](NC(=O)[C@@H]1[C@@H](CO)[C@@H]2Cn3c(cccc3=O)[C@H]1N2C(=O)C1CCCC1)c1ccccc1	-1.7	i
C[C@@H]1CN([C@H](C)CO)C(=O)c2cc(C3=CCCC3)cnc2O[C@H]1CN(C)C(=O)c1ccc2c(c1)OCO2	-1.0	i
COc1ccc(NC(=O)N(C)C[C@H]2Oc3c(NC(=O)c4nc5ccccc5s4)cccc3C(=O)N([C@H](C)CO)C[C@H]2C)cc1	4.6	i
COC(=O)c1ccc(N)c2c(N)ccc(C(=O)OC)c12	-0.6	i
COc1ccc(-c2cn(CC[C@H]3CC[C@@H](NC(=O)c4cnccn4)[C@H](CO)O3)nn2)cc1	-1.0	i
CCCNC(=O)C[C@@H]1CC[C@H]2[C@@H](COC[C@@H](O)CN2C(=O)Nc2cccc(Cl)c2)O1	-3.5	i
CO[C@H]1CN(C)C(=O)c2cc(NC(C)=O)ccc2OC[C@@H](C)N(C(=O)c2ccccc2F)C[C@H]1C	2.6	i
Cc1noc(C)c1NC(=O)N(C)C[C@@H]1OCCCC[C@H](C)Oc2ccc(NC(=O)Nc3ccc(C(F)(F)F)cc3)cc2C(=O)N([C@H](C)CO)C[C@@H]1C	2.6	i
C[C@H]1CN([C@@H](C)CO)C(=O)Cc2cc(NC(=O)Nc3ccc(F)cc3)ccc2O[C@@H]1CN(C)Cc1ccc(Oc2ccccc2)cc1	2.5	i
C[C@@H]1CN([C@H](C)CO)C(=O)c2cc(NC(=O)Nc3ccc(F)cc3)ccc2O[C@@H]1CN(C)S(C)(=O)=O	-2.6	i
O=C(C[C@H]1C[C@@H]2c3cc(NC(=O)C4CCC4)ccc3O[C@@H]2[C@@H](CO)O1)NCc1ccccc1F	-2.1	i
CCCNC(=O)N1CCC2(CC1)CN(C(C)=O)[C@H](CO)c1c2c2ccc(OC)cc2n1C	-0.3	i
COC(=O)[C@]12C[C@H](CC(=O)N3CCCCC3)C(=O)N(Cc3ccccc3)C1=C[C@H](C(C)(C)C)O[C@@H]2C	2.7	i
Cc1ccc(S(=O)(=O)N[C@H]2C=C[C@@H](CC(=O)N3CCC(Cc4ccccc4)CC3)O[C@H]2CO)cc1	3.6	i
COc1ccc2c3c([nH]c2c1)[C@@H](CO)N(Cc1cc(F)ccc1F)CC31CN(C(=O)C2CCC2)C1	-0.3	i
C[C@@H]1CN([C@@H](C)CO)C(=O)c2cc(NS(=O)(=O)c3cn(C)cn3)ccc2O[C@@H]1CN(C)Cc1ccc(C(F)(F)F)cc1	-0.6	i

3 of the entries above in order of the MLL AF4-AF9 inh value, lowest first.
structure,MLL AF4-AF9 inh
O=C(Nc1cc(F)ccc1F)N1CCCCN2[C@H](C1)[C@H](c1ccc(-c3cncnc3)cc1)[C@@H]2CO,-2.9
O=C(C[C@H]1C[C@@H]2c3cc(NC(=O)C4CCC4)ccc3O[C@@H]2[C@@H](CO)O1)NCc1ccccc1F,-2.1
CCCC(=O)Nc1ccc2c(c1)C(=O)N(C)C[C@@H](OC)[C@@H](C)CN(Cc1ccc(-c3ccccn3)cc1)[C@H](C)CO2,1.4
